# Cruzain inh Det: cruzain (T. cruzi) inhibition with detergent; P25779; Potency, µM, for inactives: max response, negative = inhibition, usual class: inhibitors; purified cruzain, Z-FR-AMC fluorescence, 0.01% Triton; hit rate 0.43% among 200,000; active = well fitted curve in the direction sought with a large enough effect; inconclusive = small, poorly fitted or top-dose-only effect, or another doubt; inactive = no such curve, though single readings can be large; an effect the other way counts as inactive or inconclusive;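 also: plate controls were neutral wells for no effect and buffer without enzyme for full effect; nearly all actives have a fitted effect of over 40% in size; top concentration of the series not given in the record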
# Target sequence (P25779 123-467 limits assumed): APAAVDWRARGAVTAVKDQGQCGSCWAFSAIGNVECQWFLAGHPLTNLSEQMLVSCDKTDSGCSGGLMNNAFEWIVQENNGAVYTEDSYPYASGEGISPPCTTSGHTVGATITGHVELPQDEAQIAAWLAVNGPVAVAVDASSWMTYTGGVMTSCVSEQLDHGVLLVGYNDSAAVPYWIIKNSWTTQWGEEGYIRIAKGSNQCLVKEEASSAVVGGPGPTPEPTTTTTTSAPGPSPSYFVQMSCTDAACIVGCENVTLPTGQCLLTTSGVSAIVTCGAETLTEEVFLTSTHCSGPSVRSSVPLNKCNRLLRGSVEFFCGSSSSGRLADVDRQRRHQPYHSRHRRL
#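 In this qHTS format, compounds are incubated with 1.5 nM cruzain for 15 min at room temperature before 2 uM Z-FR-AMC is added. Release of AMC is followed at 360/450 nm, and progress is taken as the 60 s fluorescence difference.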
# NS1 function inh: inhibitors of influenza NS1 protein function. S. cerevisiae slowed by influenza A NS1, growth recovery by OD600. Potency, µM (titrated, usually from 46.1 µM), for the others: top-dose activity, positive = more growth. hit rate 0.4% among 270,000. AID 2326; also: actives are rising curves; nearly all actives have a fitted effect of over 50% in size
#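 S. cerevisiae expressing influenza A NS1, grown in glucose, washed, then diluted 1:100 into pH 6.0 -URA galactose medium with 23 nl compound. Growth recovery read as OD600; NS1-free strain serves as control.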
# SARS PLP yeast: inhibitors of SARS-CoV papain-like protease in yeast. S. cerevisiae expressing SARS-CoV PLpro, growth rescue; control for the full effect not named in the record. Potency, µM (highest dose often 32.9 µM), inactives show at the top dose activity, positive = growth rescue. hit rate 0.19% among 330,000; also: 0% is about no effect; nearly all actives have a fitted effect of over 55% in size; growth read by luminescence after 48 h
# RE007 growth inh: less growth of the S. pombe RE007 Vpr strain | S. pombe RE007 Vpr strain, BacTiter-Glo ATP luminescence, 24 h; control for the full effect not named in the record | Potency, µM (titrated, usually from 92.2 µM), for the others: at the top dose activity change, negative = less growth | hit rate 0.21% among 360,000 | AID 651644; active = well fitted falling curve with a large enough effect; inconclusive = small, poorly fitted or top-dose-only effect; inactive = no such curve, though single readings can be large or run the other way;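 also: % is scaled to controls: 0 for no effect and ±100 for the full control effect; nearly all actives have a fitted effect of over 50% in size; the assay follows cell death caused by Vpr and the record does not say whether a fall means rescue or toxicity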
#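 Fission yeast strain RE007, carrying one chromosomally integrated HIV-1 vpr copy, was seeded at OD 0.01 in PMG+AL medium with 23 nL pinned compound. After 24 h at 30 °C and 99% humidity, viability was read by BacTiter-Glo luminescence.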
# LASV entry inh: blocks Lassa virus binding to or entry into cells. Lassa virus pseudotype entry inhibition, cell reporter; control for the full effect not named in the record. Potency, µM (doses to about 37.9 µM), without a hit: at the top dose activity change, negative = inhibition, usual class: inhibitors. hit rate 1.2% among 300,000. AID 540256; active means well fitted inhibition curve with a large enough effect; inconclusive means small, poorly fitted or top-dose-only effect, or effect the other way; inactive means flat fitted curve, though single readings scatter; tested in HEK293 cells; also: % is scaled to controls: 0 for no effect and ±100 for the full control effect; nearly all actives have a fitted effect of over 50% in size; luciferase read-out
# Marburg entry inh: inhibitors of Marburg virus binding or cell entry. Marburg virus pseudotyped entry inhibition, cell reporter; control for the full effect not named in the record; about a third of the inactives were read at about 46 µM. Potency, µM (series often up to 37.8 µM), without a hit: at the highest dose activity change, negative = inhibition, hits mostly inhibitors. hit rate 1.8% among 300,000. AID 540276; active = well fitted inhibition curve with a large enough effect; inconclusive = small, poorly fitted or top-dose-only effect, or effect the other way; inactive = flat fitted curve, though single readings scatter; tested in HEK293 cells; about a fifth of its hits are not listed in these tables; also: % is scaled to controls: 0 for no effect and ±100 for the full control effect; luciferase read-out
# Cruzain noTriton: blocks cruzain activity in detergent-free assay; purified cruzain, Z-FR-AMC fluorescence, no detergent; Potency, µM, without a hit: max response, negative = inhibition, most hits filed as inhibitors; hit rate 2.3% among 200,000; active = well fitted curve in the direction sought with a large enough effect; inconclusive = small, poorly fitted or top-dose-only effect, or another doubt; inactive = no such curve, though single readings can be large; an effect the other way counts as inactive or inconclusive;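 also: plate controls were enzyme without inhibitor for no effect and buffer without enzyme for full effect; nearly all actives have a fitted effect of over 40% in size; top concentration of the series not given in the record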
#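 Purified cruzain at 1.5 nM, pre-incubated 15 min with compound at room temperature in 100 mM sodium acetate pH 5.5, 5 mM DTT, 0.00005% Triton X-100. Reaction started with 2 uM Z-FR-AMC; AMC fluorescence increase over 60 s gives rate.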
# StopGo reporter: lowers the luciferase signal of an FMDV 2A StopGo reporter. human cells with a luciferase reporter of 2A StopGo recoding; control for the full effect not named in the record. Potency, µM (doses to about 57.9 µM), for the others: top-dose signal change, negative = less light. hit rate 1.2% among 410,000; active = well fitted falling curve with a large enough effect; inconclusive = small, poorly fitted or top-dose-only effect; inactive = no such curve, though single readings can be large or run the other way; tested in HEK293T cells; also: % is scaled to controls: 0 for no effect and ±100 for the full control effect; nearly all actives have a fitted effect of over 45% in size; luciferase light after 4 h
# The depositor's hits bear a star; ? = inconclusive; / = not tested or not shown; & = joins results of further samples; ! = not active in a repeat; [ ] = another dose, or the depositor's remark. Unless noted, calls follow the shape of the dose curve; as a rule, active means well fitted rising curve with a large enough effect; inconclusive means small, poorly fitted or top-dose-only effect; inactive means no such curve, though single readings can be large or run the other way. Potency is read from the fitted curve at half-maximal effect. This is a random part of the collection; overall some 4.7% were active at least once.
SMILES,Cruzain inh Det,NS1 function inh,SARS PLP yeast,RE007 growth inh,LASV entry inh,Marburg entry inh,Cruzain noTriton,StopGo reporter
CCCc1cc(=O)oc2c(C)c(OCC(=O)NC3CCN(Cc4ccccc4)CC3)ccc12,/,-8.3%,3.8%,-7.6%,/,/,/,-2.1%
CC(C)C(OC(=O)c1ccccc1)c1nccc2ccccc12 (centres undefined),/,-39.4%,-9.4%,-22.3%,10.7%,-11.7%,/,47.2%[activator]
Cc1ccccc1OCCn1c(S(=O)(=O)O)nc2c(N)ncnc21,/,0.5%,-0.4%,0.3%,?,-0.7%,/,4.1%
CC(=O)Oc1ccc(C(=O)Nc2ccc3c(c2)C(=O)N(CCC(=O)O)C3=O)cc1,-4.4%,0.3%,-1.2%,2.1%,-14.6%,-4.3%,-17.4%,2.2%
Cc1cccn2c(=O)c3cc(C#N)c(=N)n(Cc4ccncc4)c3nc12,-11.9%,8.1%,8.9%,/,/,/,?,/
CCN(CC(=O)Nc1c(Cl)cccc1Cl)C(=O)C1CCN(c2ncnc3sc(C)c(C)c23)CC1,/,/,-7.8%,-21.5%,-16.1%,-5.5%,/,-17.6%
CN(c1ccccc1)S(=O)(=O)c1cccc(C(=O)Nc2nccs2)c1,/,9.1%,-4.0%,16.5%,/,/,/,-0.4%
Cc1ccc(C(=O)N2CCN(Cc3ccc4c(c3)OCO4)CC2)cc1C,/,-17.8%,-0.9%,-17.8%,/,/,/,-29.8%
CCOC(=O)c1c(C(=O)OCC)c(C)n(Cc2cc(OC)c(OC)c(OC)c2)c1C,-2.6%,-4.7%,4.7%,18.3%,-13.0%,0.0%,?,?
COc1ccc(C(=O)N/C(=C\c2ccc3c(c2)OCO3)C(=O)N2CCOCC2)cc1,/,-1.6%,0.8%,-5.4%,2.9%[46.1 µM],15.8%[46.1 µM],/,2.9%
COc1ccc(/C=N/NC(=O)c2nc(-c3ccccc3)cc(-c3ccccc3)n2)cc1,-3.1%,19.4%,24.6%,0.1%,?,?,?,-8.0%
Cc1ccc(S(=O)(=O)NC(=O)COc2ccccc2C)cc1,-0.5%,-4.5%,-25.3%,2.5%,14.6%,?,21.3%,-13.5%
Cc1cccc(NC(NC(=O)c2ccccn2)C(Cl)(Cl)Cl)c1 (centres undefined),-3.7%,-13.7%,?,54.2%,-0.4%,?,-2.0%,-29.8%
Cc1ccc(N=C2C(=O)Nc3ccccc32)cc1C,/,-11.4%,6.2%,-3.4%,7.0%,14.1%,/,-5.7%
CC[N+](C)(C)CCN(Cc1ccc(Cl)cc1)c1ccccn1,2.2%,5.0%,9.9%,-8.1%,5.6%,-5.4%[46.1 µM],0.2%,4.6%
CCN(CC)c1ccc(/C=N/NC(=O)CNC(=O)c2cccs2)cc1,/,-20.3%,0.2%,3.3%,4.0%,16.6%[46.1 µM],/,33.4%[activator]
CCS(=O)(=O)N1CCN=C1SCc1cccc(F)c1,/,-3.5%,-2.2%,-4.5%,/,/,/,-23.3%
Cc1ccc(S(=O)(=O)N2CCOCC2)cc1NC(=O)CNC1CCCC1,/,0.5%,0.5%,-7.4%,-10.4%,-8.1%,/,-8.9%
CCOc1ccc(NC(=O)Cn2c(=O)n(CC3CCCO3)c(=O)c3ccccc32)cc1 (centres undefined),-3.0%,/,-0.2%,13.5%,14.3%,-13.1%&-2.4%[46.1 µM],-3.1%,-12.0%&-23.3%
CCOc1ccc(CNC(=O)Cn2ccc3cc(S(=O)(=O)N4CCCC4)ccc32)cc1,/,6.3%,2.8%,11.5%,/,/,/,-17.2%
CCOc1ccccc1C(=O)N1CC(=O)Nc2ccc(Cl)cc2C1c1ccccc1 (centres undefined),-5.1%,/,/,/,3.7%[46.1 µM],-17.7%[46.1 µM],5.1%,-16.7%
COc1cc2[nH]c3c(Cl)ncnc3c2cc1OC,-4.5%,-6.4%,-3.8%,5.3%,?,23.1%,-9.3%,-20.8%
CN(C)c1ccc(N2C(=O)CC(Nc3ccc(N4CCOCC4)cc3)C2=O)cc1 (centres undefined),1.3%,5.8%,4.4%,0.0%,17.2%,8.9%,-12.5%,-7.8%
COC(=O)COc1ccc(C(C2C(=O)CC(C)(C)CC2=O)C2C(=O)CC(C)(C)CC2=O)cc1,/,-9.1%,-0.7%,-2.5%,/,/,/,-6.2%
COC(=O)c1cc2oc3ccccc3c2n1Cc1cccc(C)c1,-29.5%,/,/,/,/,-0.8%[46.1 µM],?,0.0%
Cc1cc(Nc2cccc(C(F)(F)F)c2)ncn1,-3.7%,/,/,/,-1.4%[46.1 µM],22.5%[46.1 µM],12.1%,-8.7%
O=C(CC1Sc2ccccc2NC1=O)NCc1cccc(Cl)c1 (centres undefined),/,/,4.0%,13.8%,/,?,/,-7.0%
C=C(C)CN1CCN(c2c(CCC#N)c(C)c(C#N)c3nc4ccccc4n23)CC1,2.2%,4.7%,4.4%,0.8%,5.4%,14.0%&14.0%[46.1 µM],17.3%,-8.3%
O=C(O)CC1S/C(=N/N=C/c2ccccn2)NC1=O (centres undefined),/,-2.5%,18.2%,-15.5%,/,/,/,7.2%
Cc1cc(C)nc(NS(=O)(=O)c2ccc(N=NN(C)C)cc2)n1,/,7.0%,-2.2%,-4.6%,/,/,/,119.4%[activator]
Cc1cc2ncn(/N=C/c3ccc([N+](=O)[O-])o3)c2cc1C,0.1%,-106.1%,-12.6%,11.3%,-11.1%,?,9.6%,/
O=C(C(=O)N1CCN(c2ccc(F)cc2)CC1)N1CCCCC1,/,2.5%,-0.5%,-8.2%,?,0.3%[46.1 µM],/,-3.7%
COc1ccc(-c2noc(CSc3nc(C)cc(=O)[nH]3)n2)cc1OC,-0.5%,/,/,/,-1.8%[46.1 µM],3.2%[46.1 µM],4.7%,-8.5%
Cc1ccccc1OCC(=O)NCCCNC(=O)c1ccccn1,/,-0.1%,-0.2%,0.1%,13.1%,?,/,4.2%
Cc1cc(N2CCCCC2)nc2ccc(NC(=O)/C=C/c3ccccc3OC(C)C)cc12,-16.1%,/,/,/,-20.7%[46.1 µM],?,?,11.8%
O=C(N/N=C1/CCS(=O)(=O)c2ccc(F)cc21)c1cccnc1,/,/,-5.0%,-14.1%,-8.7%[46.1 µM],-2.1%[46.1 µM],/,5.1%
COc1ccccc1NCc1nnc(SCC(=O)N/N=C/c2ccco2)n1-c1ccc(Cl)cc1Cl,-3.9%,23.2%,-9.6%,-13.7%,-16.9%,21.6%[46.1 µM],5.4%,-9.2%
CC1=C(/C=C/C(C)=C/C=C/C(C)=C/C(=O)Nc2ccc(O)cc2)C(C)(C)CCC1,-4.5%&-8.6%&2.2%&-2.7%,?,-14.8%,-17.2%&-6.4%,10µM*,?,15.8µM*!,?
CCOC(=O)c1[nH]c(C)c(CCC(=O)Nc2ccc(Br)c(C)c2)c1C,-5.1%,/,/,/,3.6%[46.1 µM],/,-2.9%,-12.2%
Cc1cc(-c2ccccc2)cc(C)n1,/,/,/,-8.7%,20.4%[46.1 µM],-10.9%[46.1 µM],/,-9.8%
COCCn1c(-c2ccc(OC(F)(F)C(F)C(F)(F)F)cc2)nc2c1c(=O)[nH]c(=O)n2CC(C)C (centres undefined),-14.8%,23.1%,-3.7%,1.4%,2.82µM*,-5.0%,?,?
O=C(Nc1ccc(F)cc1)Nc1ccccc1NS(=O)(=O)c1cccs1,-9.5%,7.9%,7.5%,-5.8%,/,3.8%,2.5%,-1.3%
Cc1cc(C)c(NC(=O)CNC(=O)c2ccc(-n3cncn3)c([N+](=O)[O-])c2)c(C)c1,/,/,0.2%,-2.9%,0.3%,1.9%[46.1 µM],/,53.7%[activator]
Cc1nn(CC(=O)NCCc2ccccc2)c(C)c1[N+](=O)[O-],-1.9%,-5.5%,-14.4%,40.5%,?,0.1%,4.3%,12.3%
COc1ccc(Cl)cc1NC(=O)c1cnc2sc(N3CCOCC3)nn2c1=O,0.6%,/,/,/,25.9%[46.1 µM],/,-15.1%,-13.2%
CCOCCCNC(=O)c1c[nH]c2ccc(S(=O)(=O)Nc3cccc(Cl)c3C)cc2c1=O,-8.6%,/,/,/,?,-8.6%[46.1 µM],22.4%,17.3%
CCSc1nnc(NC(=O)CN2C(=O)N(C)C3(CCCCC3)C2=O)s1,/,/,-0.7%,-6.7%,-5.0%,8.0%,/,-20.8%
NC(=O)CC(NC(=O)Cc1cccc2ccccc12)c1ccc(NCc2ccc(F)c(F)c2)c([N+](=O)[O-])c1 (centres undefined),/,4.8%,0.4%,-25.8%,/,/,/,-13.8%
CC(C1CC1)N(Cc1ccccc1)C(=S)Nc1ccccc1 (centres undefined),/,/,15.4%,1.2%,?,-0.7%[46.1 µM],/,-4.7%
COc1ccccc1CN1C(=O)C2CC=CCC2C1=O (centres undefined),1.1%,-18.9%,6.6%,2.6%,1.2%,5.6%,0.4%,9.4%

# High-throughput results as filed in PubChem.
